High-throughput results deposited in PubChem by Southern Research Institute.
Vero: Vero cell cytotoxicity, dose response, cytotoxicity control for Vif-APOBEC3G degradation inhibitor project, Vero cells (AID 1117358); Vero viability, CellTiter-Glo ATP luminescence, 72 h; reference of the scale not given here; hit rate 7% among 2,300; CC50 in µM for hits, for the others viability, % at the top dose, mostly 40 µM;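 active means viability down to 80% or less at some dose; inactive means above 80% at all doses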
* = called active by the depositor. An excerpt; the hit share may differ from the screen's.

How did CCCC(C)C(=O)NC1CCSC1=O (stereo not given) do in these assays?
Vero: 95.7%

What do the screens show for `CCOc1cccc(OCC)c2c(C)[n+](CC3CCCO3)c(C)c1-2` (stereo not given)?
Vero: 90.3%

Results for Oc1ccc(/C=N/NP(=S)(c2ccccc2)c2ccccc2)c(O)c1O ?
Vero: 98.0%

How did O=C(CCN1CCOCC1)NCC(=O)Nc1ccc(Br)cc1C(=O)c1ccccc1 do in these assays?
Vero: 84.0%

How did O=P(C(c1ccc2c(c1)OCO2)N1CCOCC1)(N1CCOCC1)N1CCOCC1 (stereo not given) do in these assays?
Vero: 103.8%

Gathered by group: the entries above with sulfur.
How did CCCC(C)C(=O)NC1CCSC1=O (stereo not given) do in these assays?
Vero: 95.7%

Results for Oc1ccc(/C=N/NP(=S)(c2ccccc2)c2ccccc2)c(O)c1O ?
Vero: 98.0%
